Vaccinia stage – blocks a specific stage of Vaccinia orthopoxvirus infection | Vaccinia-infected cells, mCherry/Venus stage reporter fluorescence; hits give low values; some inactives read as strong as hits | activity change (mCherry), % (no concentration beside the values) | 89,000 compounds, 0.01% hits | AID 1053133;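 active = mCherry past -33% and 40 or more points under the early reporter, replicates agreeing; inconclusive = past -33% without that gap or agreement; tested in A549 cells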;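 note: scaled between vehicle wells and reference inhibitor wells; 23 nL library stock went into each well; one replicate is shown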
Vaccinia stage Venus – recorded beside Vaccinia stage, whose call it bears; activity change (Venus), %; measured here: Venus reporter, other viral stage;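 negative = less Venus signal; first of two replicates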
* hit, by the source's call; ? = inconclusive; / = no result given. These rows are one share of the data; count on the stated rates, not on these rows.

The line under a structure holds: Vaccinia stage, Vaccinia stage Venus
1. COc1cccc(C#Cc2ccc3c(c2)O[C@@H](CN(C)S(=O)(=O)c2ccccc2F)[C@@H](C)CN([C@H](C)CO)S3(=O)=O)c1
  -9, -1
2. CCCNC(=O)Nc1ccc2c(c1)C(=O)N(C)[C@@H]1CC[C@H](CC(=O)NC3CCC3)O[C@H]1CO2
  15, 11
3. C[C@@H]1CN([C@H](C)CO)S(=O)(=O)c2ccc(C#CC3CC3)cc2O[C@@H]1CN(C)C(=O)c1cccnc1
  14, -1
4. CCNC(=O)C[C@H]1CC[C@@H]2[C@H](COC[C@@H](O)CN2C(=O)C2CCCC2)O1
  15, 11
5. CS(=O)(=O)Nc1ccc2c(c1)[C@@H]1C[C@@H](CC(=O)N3CCc4ccccc4C3)O[C@@H](CO)[C@@H]1O2
  -6, -8
6. COc1ccc2c3c([nH]c2c1)[C@@H](CO)N(C(=O)C1CCCC1)CC31CN(S(C)(=O)=O)C1
  0, -3
7. COc1ccc(S(=O)(=O)N(C)C[C@H]2Oc3ccc(NS(=O)(=O)c4c(C)noc4C)cc3C(=O)N([C@@H](C)CO)C[C@H]2C)cc1
  4, 9
8. COc1ccc(S(=O)(=O)N(C)C[C@H]2Oc3ccc(NC(=O)C4CC4)cc3C(=O)N([C@H](C)CO)C[C@@H]2C)cc1
  -7, -9
9. O=C(C[C@H]1C[C@H]2c3cc(NC(=O)NC4CCCC4)ccc3O[C@H]2[C@H](CO)O1)NCc1ccc(-c2ccccc2)cc1
  10, 3
10. CC(C)(C)[S@@](=O)N1Cc2cc(C(=O)N3CCCCC3)nc(-c3cccc(-c4ccc(C#N)cc4)c3)c2[C@H]1CCO
  13, 18
11. Cc1ccc(S(=O)(=O)N(C)C[C@@H]2Oc3cc(C4=CCCC4)ccc3S(=O)(=O)N([C@@H](C)CO)C[C@@H]2C)cc1
  -30, -10
12. C/C=C/c1ccc([C@H]2[C@@H](CO)N(C(=O)COC)[C@H]2CNC(=O)C2CC2)cc1
  3, 2
13. CO[C@@H]1CN(C)C(=O)c2cc(NS(C)(=O)=O)ccc2OC[C@@H](C)N(CC2CC2)C[C@@H]1C
  9, 7
14. CCN(C[C@@H]1[C@H](c2ccccc2)[C@@H](CO)N1C(=O)COC)S(C)(=O)=O
  6, 12
15. CO[C@H](CN(C)C(=O)c1ccc2c(c1)OCO2)[C@@H](C)CN([C@H](C)CO)S(=O)(=O)c1ccccc1
  4, 0
16. C[C@H]1CCCCO[C@H](CN(C)S(=O)(=O)c2ccccc2)[C@@H](C)CN([C@@H](C)CO)C(=O)c2cc(NS(=O)(=O)c3ccc(F)cc3)ccc2O1
  ?, /
17. Cc1ccc(S(=O)(=O)Nc2ccc3c(c2)CC(=O)N([C@H](C)CO)C[C@H](C)[C@H](CN(C)Cc2ccc(Cl)c(Cl)c2)O3)cc1
  -11, -11
18. C[C@H]1CN([C@@H](C)CO)C(=O)c2cccc(NC(=O)NC3CCCCC3)c2O[C@@H]1CN(C)Cc1ccc(-c2ccccc2)cc1
  -24, -17
19. C[C@@H]1CN([C@H](C)CO)C(=O)c2cc(NC(=O)Nc3cccc4ccccc34)ccc2O[C@@H](C)CCCCO[C@@H]1CN(C)Cc1ccncc1
  4, 1
20. CO[C@@H]1CN(C)C(=O)c2ccc(NC(=O)C3CC3)cc2OC[C@@H](C)N(CC2CC2)C[C@H]1C
  15, 8
21. CO[C@@H]1CN(C)C(=O)c2cc(NC(=O)C3CC3)ccc2OC[C@@H](C)N(C)C[C@@H]1C
  5, 4
22. CNC[C@H]1Oc2ccc(NC(=O)C3CC3)cc2CC(=O)N([C@H](C)CO)C[C@H]1C
  7, 13
23. Cc1noc(C)c1NC(=O)N(C)C[C@@H]1OCc2cn(nn2)CCCC(=O)N([C@H](C)CO)C[C@H]1C
  9, -1
24. CN1C(=O)c2cc(NC(=O)c3cccc(F)c3)ccc2OC[C@H]2O[C@@H](CC(=O)NCC3CC3)CC[C@H]21
  11, -1
25. CCCC(=O)Nc1ccc2c(c1)C(=O)N(C)[C@H]1CC[C@@H](CC(=O)NCC3CCCCC3)O[C@@H]1CO2
  9, 6
26. C[C@H](CO)N1C[C@H](C)[C@H](CN(C)C(=O)Nc2ccc(C(F)(F)F)cc2)Oc2c(NC(=O)c3ccncc3)cccc2C1=O
  3, -2
27. CNC[C@H]1Oc2c(NC(=O)C3CC3)cccc2C(=O)N([C@@H](C)CO)C[C@H]1C
  -1, 7
28. COC(=O)[C@@H]1[C@@H](CO)[C@@H]2Cn3c(ccc(-c4ccc(F)cc4)c3=O)[C@H]1N2C(C)=O
  -1, -7
29. CC(C)C#Cc1ccc2c(c1)O[C@H](CN(C)C(=O)Nc1ccccc1)[C@H](C)CN([C@@H](C)CO)S2(=O)=O
  ?, /
30. O=C(C1CCOCC1)N1CC(=O)N2[C@H](C1)[C@H](c1ccc(-c3cccnc3)cc1)[C@@H]2CO
  17, 13
31. COc1ccc(NC(=O)N(C)C[C@@H]2Oc3ccc(NC(=O)CCCCCC(=O)Nc4ccccc4N)cc3CC(=O)N([C@H](C)CO)C[C@@H]2C)cc1
  -9, -15
32. COc1ccc(NC(=O)N(C)C[C@H]2OCCCC[C@@H](C)Oc3ccc(NS(=O)(=O)c4cn(C)cn4)cc3C(=O)N([C@@H](C)CO)C[C@@H]2C)cc1
  25, 17
33. O=C(C[C@@H]1CC[C@H](NC(=O)C2CCC2)[C@@H](CO)O1)NCc1ccncc1
  5, 2
34. COCC#Cc1ccc([C@H]2[C@@H](CO)N3CCCCN(C(=O)COC)C[C@@H]23)cc1
  25, 10
35. CCC(=O)N(C)C[C@@H]1Oc2cc(-c3ccc(C)cc3)ccc2S(=O)(=O)N([C@H](C)CO)C[C@H]1C
  -6, -18
36. C[C@H]1CN([C@@H](C)CO)C(=O)Cc2cc(NS(=O)(=O)c3cn(C)cn3)ccc2O[C@H]1CN(C)C(=O)Nc1cccc2ccccc12
  11, 17
37. O=C1CNC[C@H]2[C@@H](c3ccc(Br)cc3)[C@H](CO)N12
  5, 7
38. COc1ccc(S(=O)(=O)N(C)C[C@H]2OCCCC[C@@H](C)Oc3ccc(NS(=O)(=O)c4ccc(Cl)cc4)cc3C(=O)N([C@H](C)CO)C[C@H]2C)cc1
  ?, /
39. CCCNC(=O)[C@H]1[C@H](CO)[C@H]2Cn3c(ccc(-c4ccccc4)c3=O)[C@H]2N1C(=O)c1ccccc1F
  2, 6
40. CNC(=O)C[C@H]1CC[C@H]2[C@H](COc3ccc(NC(=O)Nc4ccc(F)cc4)cc3C(=O)N2C)O1
  4, 7
41. C[C@H]1CN([C@@H](C)CO)C(=O)Cc2cc(NC(=O)CCCCCC(=O)Nc3ccccc3N)ccc2O[C@@H]1CN(C)C
  25, 16
42. CC(C)NC(=O)NCC[C@H]1CC[C@@H](NC(=O)CCN2CCCCC2)[C@@H](CO)O1
  12, 0
43. CCC(=O)N(C)C[C@@H]1Oc2cc(-c3cccc(F)c3)ccc2S(=O)(=O)N([C@H](C)CO)C[C@@H]1C
  -4, -17
44. N#Cc1ccc(-c2ccc3c(c2)[C@H]2[C@H](CCN2C(=O)C2CCC2)[C@@H](CO)N3)cc1
  ?, /
45. CN1C(=O)c2cc(NC(=O)c3cnccn3)ccc2OC[C@H]2O[C@@H](CC(=O)Nc3cc(F)ccc3F)CC[C@@H]21
  -4, 3
46. CCCNC(=O)N1CC2(C1)[C@H](c1ccccc1)[C@@H](CO)N2C(=O)C1CCCC1
  -17, -21
47. Cc1ccc(S(=O)(=O)Nc2ccc3c(c2)C(=O)N([C@H](C)CO)C[C@H](C)[C@H](CN(C)C(=O)Nc2ccc(C(F)(F)F)cc2)OCCCC[C@H](C)O3)cc1
  -8, -13
48. CCC(=O)N1C[C@@H](C)[C@@H](OC)CN(C)C(=O)c2ccc(NC(=O)Nc3ccccc3)cc2OC[C@H]1C
  6, 2
49. O=C(CCN1CCCCC1)NCC[C@H]1CC[C@H](NC(=O)Cc2cccnc2)[C@H](CO)O1
  -9, -8
50. COc1cccc(C#Cc2cnc3c(c2)C(=O)N([C@H](C)CO)C[C@H](C)[C@@H](CN(C)C(=O)C2CCCCC2)O3)c1
  ?, /

Further compounds.
The line under a structure holds: Vaccinia stage, Vaccinia stage Venus
51. CC(C)NC(=O)N1CCCCN2[C@H](C1)[C@@H](c1ccc(C#Cc3ccccc3)cc1)[C@@H]2CO
  ?, /
52. Cc1noc(C)c1NC(=O)N[C@@H]1CC[C@@H](CC(=O)Nc2ccc(-c3ccccc3)cc2)O[C@H]1CO
  -1, -4
53. COc1cccc(-c2ccc([C@@H]3[C@@H](CO)N4CCCCN(CC5CCOCC5)C[C@@H]34)cc2)c1
  2, -2
54. Cc1noc(C)c1NC(=O)Nc1ccc2c(c1)C(=O)N([C@@H](C)CO)C[C@@H](C)[C@H](CN(C)C(=O)C1CCCCC1)OCCCC[C@@H](C)O2
  15, 1
55. O=C(Nc1ccc2c(c1)[C@@H]1C[C@H](CC(=O)N3CCc4ccccc4C3)O[C@@H](CO)[C@@H]1O2)Nc1ccccc1F
  -19, -14
56. CC(C)NC(=O)N(C)C[C@@H]1Oc2ccc(NS(=O)(=O)c3cn(C)cn3)cc2C(=O)N([C@@H](C)CO)C[C@H]1C
  21, 13
57. C/C=C/c1ccc2c(c1)O[C@@H](CN(C)Cc1ccccn1)[C@@H](C)CN([C@@H](C)CO)S2(=O)=O
  -3, 4
58. C[C@@H]1CN([C@@H](C)CO)C(=O)c2cc(NC(=O)CCC(F)(F)F)ccc2O[C@@H]1CN(C)C(=O)Nc1ccc(F)cc1
  -10, -4
59. C[C@H]1CN([C@@H](C)CO)C(=O)c2cc(NC(=O)Nc3cccc4ccccc34)ccc2O[C@H]1CN(C)Cc1ccncc1
  8, 3
60. C[C@@H]1CN([C@H](C)CO)C(=O)c2cccc(NC(=O)C3CCCCC3)c2O[C@@H]1CN(C)C(=O)Nc1ccccc1
  -10, -9
61. O=C(NCc1ccncn1)[C@H]1[C@H](CO)[C@H]2Cn3c(ccc(-c4ccncc4)c3=O)[C@H]2N1CC1CC1
  16, 16
62. CCC(=O)N(C)C[C@H]1Oc2cc(C3=CCCC3)ccc2S(=O)(=O)N([C@H](C)CO)C[C@H]1C
  -2, -6
63. Cc1noc(C)c1NC(=O)Nc1ccc2c(c1)CC(=O)N([C@H](C)CO)C[C@@H](C)[C@@H](CN(C)S(=O)(=O)c1ccccc1)O2
  -1, 5
64. CC=Cc1ccc2n(c1=O)C[C@@H]1[C@@H](CO)[C@H](C(=O)NC3CCC3)N(Cc3ccncc3)[C@H]21 (mixture of isomers)
  0, 12
65. C[C@@H]1CN([C@H](C)CO)S(=O)(=O)c2ccc(Br)cc2O[C@H]1CN(C)C(=O)Nc1ccccc1
  -2, 1
66. C[C@H](CO)N1C[C@H](C)[C@H](CN(C)Cc2ccccc2)Oc2ncc(C#Cc3ccccc3)cc2C1=O
  -20, -20
67. O=C(C[C@@H]1CC[C@H]2[C@@H](COC[C@H](O)CN2Cc2nccs2)O1)NCc1ccccc1F
  -8, 0
68. O=S(=O)(N[C@@H]1CC[C@@H](CCn2cc(-c3cccnc3)nn2)O[C@H]1CO)c1ccc(F)cc1
  23, 13
69. Cc1noc(C)c1NC(=O)N(C)C[C@H]1Oc2c(NC(=O)C3CCCCC3)cccc2C(=O)N([C@H](C)CO)C[C@H]1C
  11, 12
70. COC(=O)[C@@]1(CCS(=O)(=O)c2ccccc2)N=C(c2ccc(OCCCO)cc2)O[C@H]1c1ccccc1CN=[N+]=[N-]
  ?, /
71. C[C@@H]1CN([C@H](C)CO)C(=O)c2cc(NC(=O)C3CCCCC3)ccc2O[C@H]1CN(C)Cc1ccc(-c2ccccc2)cc1
  10, 8
72. O=C(O)C[C@@H]1C[C@@H]2c3cc(NC(=O)NC4CCCC4)ccc3O[C@@H]2[C@@H](CO)O1
  18, 14
73. Cc1ccc(S(=O)(=O)Nc2ccc3c(c2)C(=O)N([C@@H](C)CO)C[C@@H](C)[C@@H](CN(C)C(=O)c2ccccc2)OCCCC[C@H](C)O3)cc1
  0, -5
74. CCCNC(=O)N1C[C@@H](O)COC[C@H]2O[C@@H](CC(=O)NCCCN3CCOCC3)CC[C@@H]21
  22, 17
75. C[C@@H]1CN([C@@H](C)CO)C(=O)Cc2cc(NC(=O)Cn3cnnn3)ccc2O[C@H]1CN(C)Cc1ccc(-c2ccccc2)cc1
  4, 2
76. C[C@@H]1CN([C@H](C)CO)C(=O)c2cc(-c3ccncc3)cnc2O[C@@H]1CN(C)C(=O)c1ccncc1
  18, 4
77. COCC(=O)N[C@@H]1CC[C@H](CC(=O)N2CCCCC2)O[C@H]1CO
  10, 5
78. Cc1cccc(S(=O)(=O)N2CC[C@H]3[C@H](CO)Nc4ccc(C#Cc5cccnc5)cc4[C@H]32)c1
  0, -1
79. C[C@H]1CN([C@@H](C)CO)C(=O)c2ccccc2-c2ccccc2CO[C@H]1CN(C)C(=O)CCN(C)C
  -14, -19
80. COc1ccc(CNC(=O)C[C@@H]2C[C@H]3c4cc(N(C)C)ccc4O[C@H]3[C@@H](CO)O2)cc1
  9, 7

Pulled by structure from the entries so far (7):
The line under a structure holds: Vaccinia stage, Vaccinia stage Venus
67. O=C(C[C@@H]1CC[C@H]2[C@@H](COC[C@H](O)CN2Cc2nccs2)O1)NCc1ccccc1F
  -8, 0
36. C[C@H]1CN([C@@H](C)CO)C(=O)Cc2cc(NS(=O)(=O)c3cn(C)cn3)ccc2O[C@H]1CN(C)C(=O)Nc1cccc2ccccc12
  11, 17
7. COc1ccc(S(=O)(=O)N(C)C[C@H]2Oc3ccc(NS(=O)(=O)c4c(C)noc4C)cc3C(=O)N([C@@H](C)CO)C[C@H]2C)cc1
  4, 9
39. CCCNC(=O)[C@H]1[C@H](CO)[C@H]2Cn3c(ccc(-c4ccccc4)c3=O)[C@H]2N1C(=O)c1ccccc1F
  2, 6
23. Cc1noc(C)c1NC(=O)N(C)C[C@@H]1OCc2cn(nn2)CCCC(=O)N([C@H](C)CO)C[C@H]1C
  9, -1
32. COc1ccc(NC(=O)N(C)C[C@H]2OCCCC[C@@H](C)Oc3ccc(NS(=O)(=O)c4cn(C)cn4)cc3C(=O)N([C@@H](C)CO)C[C@@H]2C)cc1
  25, 17
27. CNC[C@H]1Oc2c(NC(=O)C3CC3)cccc2C(=O)N([C@@H](C)CO)C[C@H]1C
  -1, 7
